Assay outcomes from PubChem BioAssay.
CtBP-E1A blk = qHTS Assay for Inhibitors of the CtBP/E1A Interaction | 340,000 tested, 0.49% active | CtBP / adenovirus E1A interaction (AlphaScreen) | AID 651724, 2012 | activity change, % (test concentration not listed) | AlphaScreen GST-E1A/His-CtBP binding, 1536-well; active compounds read low; control for the full effect not named in the record; in the data active means activity change below about -65%; inconclusive means about -30% to -65%; inactive means above about -30%; also: % is scaled to controls: 0 for no effect and ±100 for the full control effect
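GST-E1A and His-tagged CtBP (125 nM each as 5X stock) were preincubated with pin-transferred compound for 2 h at 37 °C in the dark, then glutathione donor and nickel acceptor beads were added for 1 h before AlphaScreen reading.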
TRPML1 agonist = qHTS for Agonists of the Human Mucolipin Transient Receptor Potential 1 (TRPML1) | 410,000 tested, 0.12% active | Mucolipin-1 (Homo sapiens), Q9GZU1 | AID 624414, 2012 | activation, % (concentration not given with the values) | TRPML1-expressing cells, Ca2+ dye fluorescence, FDSS; host cell line not named in the record; reference of the full effect not given here; in the data active = activation above about 50%; inconclusive = about 30% to 50%; inactive = below about 30%; also: 0% is about no effect; the text of the record puts the active cut at 80%
Target sequence (Q9GZU1 whole entry, looked up): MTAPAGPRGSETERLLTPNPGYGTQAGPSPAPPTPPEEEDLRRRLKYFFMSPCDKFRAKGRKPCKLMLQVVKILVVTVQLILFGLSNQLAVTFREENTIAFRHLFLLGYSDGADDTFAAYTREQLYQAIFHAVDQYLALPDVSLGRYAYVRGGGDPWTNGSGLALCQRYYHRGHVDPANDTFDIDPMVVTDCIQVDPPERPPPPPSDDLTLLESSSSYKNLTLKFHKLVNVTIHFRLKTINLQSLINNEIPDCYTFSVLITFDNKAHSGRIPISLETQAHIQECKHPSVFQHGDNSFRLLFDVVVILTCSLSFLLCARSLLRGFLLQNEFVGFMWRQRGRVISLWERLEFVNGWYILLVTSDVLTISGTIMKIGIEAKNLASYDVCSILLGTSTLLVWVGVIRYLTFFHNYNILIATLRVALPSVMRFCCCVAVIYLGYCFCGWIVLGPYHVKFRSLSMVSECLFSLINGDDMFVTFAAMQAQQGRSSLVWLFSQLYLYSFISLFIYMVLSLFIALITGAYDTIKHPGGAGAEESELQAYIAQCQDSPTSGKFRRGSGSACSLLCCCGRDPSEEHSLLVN
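Tet-induced TRPML1-DL cells, 1,500 per well, cultured overnight, were loaded with a no-wash Ca2+ dye for 45–90 min. Calcium fluorescence was recorded on the FDSS for 110 s after compound addition, before the EC80 agonist (4 uM 54-4) was added.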
D2 ag = Beta-Arrestin HTS for Positive Allosteric Modulators of the Human D2 Dopamine Receptor: Agonists | 360,000 tested, 0.084% active | D(2) dopamine receptor (Homo sapiens), P14416 | activation, % (no concentration beside the values) | DiscoveRx PathHunter D2 beta-arrestin, luminescence, 90 min; 100% = 57 uM dopamine signal; in the data active = activation above about 40%; inconclusive = about 15% to 40%; inactive = below about 15%; also: compound concentration not given in the record; the text of the record calls up to 30% inactive
Target sequence (P14416 whole entry, looked up): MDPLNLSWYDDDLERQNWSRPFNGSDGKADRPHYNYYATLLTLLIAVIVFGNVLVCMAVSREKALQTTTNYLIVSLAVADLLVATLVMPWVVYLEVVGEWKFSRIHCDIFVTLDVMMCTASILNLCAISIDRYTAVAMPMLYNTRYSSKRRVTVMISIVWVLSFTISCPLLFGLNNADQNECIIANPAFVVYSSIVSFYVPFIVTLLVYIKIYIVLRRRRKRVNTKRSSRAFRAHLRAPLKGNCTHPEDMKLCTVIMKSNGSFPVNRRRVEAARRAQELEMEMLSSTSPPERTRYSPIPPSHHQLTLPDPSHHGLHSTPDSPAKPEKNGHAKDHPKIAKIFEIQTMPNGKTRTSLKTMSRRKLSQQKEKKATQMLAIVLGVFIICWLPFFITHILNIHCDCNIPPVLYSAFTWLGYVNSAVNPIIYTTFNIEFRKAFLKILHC
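DiscoveRx PathHunter D2 beta-arrestin cells (2,100/well) attached overnight, then compound-stimulated 90 min at 37 C in HBSS/10 mM HEPES/0.1% Tween-20 buffer; beta-galactosidase complementation read by luminescence after 1 h at ambient temperature. Dopamine 57 uM final (EC100) as control.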
PINK1 modulator = A Quantitative High throughput Screen to Identify Chemical Modulators of PINK1 Expression. PINK1 immunofluorescence, high-content cytometry, 24 h. Potency, µM (top dose mostly 76.6 µM), for the others: at the top dose activation (PINK1 increase), usual class: activators. 410,000 tested, 0.2% active; active = well fitted activation curve with a large enough effect; inconclusive = small, poorly fitted or top-dose-only effect; inactive = flat fitted curve, though single readings scatter; cell line not stated here;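 also: potency is read from the fitted curve at half-maximal effect; % of control where 0% means no effect; nearly all actives have a fitted effect of over 65% in size; a mitochondrial uncoupler was the plate control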
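Measures PINK1 amount and localization on or inside mitochondria by immunofluorescence. Stable cells get compounds at 5 concentrations for 24 hours before fixation and staining; CCCP controls included.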
D2 potentiator = Beta-Arrestin HTS for Positive Allosteric Modulators of the Human D2 Dopamine Receptor: Potentiators; D(2) dopamine receptor (Homo sapiens), P14416; DiscoveRx D2 beta-arrestin cells, luminescence, 90 min; 100% = 57 uM dopamine signal; potentiation, % (concentration not given with the values); 360,000 tested, 0.23% active; AID 624464, 2012; active = potentiation of 50% or more; inconclusive = 30% to 50%; inactive = 30% or less;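 also: compound concentration not given in the record; tested on top of an EC20 dose of dopamine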
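PathHunter beta-arrestin assay in DiscoveRx D2 cells. Compounds were added with an EC20 of dopamine (50 nM final) for 90 min at 37 deg C. Luminescence was read 1 h after detection reagent, with 57 uM dopamine as the EC100 control.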
Six1-Eya2 inh = qHTS Assay for Inhibitors of the Six1/Eya2 Interaction; Homeobox protein SIX1 (Homo sapiens) + Protein phosphatase EYA2 (Homo sapiens), …; AlphaScreen GST-Six1/His-Eya2 binding, biochemical; active compounds read low; control for the full effect not named in the record; activity change, % (no concentration beside the values); 360,000 tested, 0.56% active; in the data active = activity change below about -65%; inconclusive = about -30% to -65%; inactive = above about -30%; also: % is scaled to controls: 0 for no effect and ±100 for the full control effect
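AlphaScreen with GST-Six1 and His-Eya2 (5X mix: 250 nM and 500 nM), glutathione donor and nickel acceptor beads; buffer 50 mM Tris pH 8.0, 300 mM NaCl, 1 mM TCEP; 1 h at 37 C in the dark.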
* = called active by the depositor; ? = inconclusive; . = no result given; & = joins results of further samples; [ ] = another dose, or the depositor's remark.

mol,CtBP-E1A blk,TRPML1 agonist,D2 ag,PINK1 modulator,D2 potentiator,Six1-Eya2 inh
CN(C)CCCNC(=S)Nc1ccc(Oc2ccccc2)cc1,3,-1.1,-6.2,-0.3%,-10,-1
Cc1cccc(-c2nc(CSCC(=O)N3CCN(Cc4ccc5c(c4)OCO5)CC3)c(C)o2)c1,-2,-0.1,0.3,0.9%,-23,-7
CCC(C)NC(=O)CS(=O)Cc1nc(-c2cccc(OC)c2)oc1C (stereo unspecified),1,-0.4,-0.2,0.8%,1,-3
COc1ccc(/C=N/n2c(-c3ccccc3)n[nH]c2=S)cc1,-2,-0.1,?,2.3%,-10,-15
COc1ccc(N(C(=O)CNC(=O)c2ccco2)C(C(=O)NC2CCCCC2)c2ccncc2)cc1 (stereo unspecified),5,0.4,-2.7,3.6%,-7,-4
COc1ccc(Sc2ccc(-c3nc4cnccn4c3NC3CCCCC3)cc2OC)cc1,6,-0.1,-2.9,21%,-29,2
CCOc1ccc(N=Cc2ccc(N(C)C)cc2)c(O)c1,-4,2.3,?,16%,5,-28
COc1cc(NC(=O)c2ccc(COCC(F)(F)F)o2)cc(OC)c1OC,2,0.6,1.7,.,-8,2
OCC1(Cc2ccccc2C(F)(F)F)CCN(Cc2cccc3cnccc23)CC1,-8,-0.2,-2.8,0.6%,-20,-9
O=C(CCS(=O)(=O)CCN1CCOCC1)NCNC(=O)CCS(=O)(=O)CCN1CCOCC1,1,0.0,2.0,1.2%,2,8
Cc1ccc(-n2ncc3c(NCCCn4ccnc4)ncnc32)c(C)c1,1,-0.6,-6.5,1.6%,-4,3
Cc1ccccc1OCC(=O)NNC(=O)CSc1nc(N)cc(N)n1,.,-0.3,2.0,1.6%,-1,-6
Cc1ccccc1CS(=O)(=O)Cc1ccc(C(=O)NCc2cccnc2)o1,0,0.5,0.3,1.4%,-29,21
CCOC(=O)c1c(NC(=O)CC2SC(N)=NC2=O)sc(C)c1C (stereo unspecified),-22,2.4,-2.5,-0.9%,-2,0
C#CCNC(=O)c1ccc2sc([C@@H]3O[C@H](CO)[C@H](O)[C@H](O)[C@H]3O)nc2c1,4,-0.4,-7.7,-0.8%,-11,7
COc1cccc(-n2c(Cc3cc(=O)[nH]c(=O)[nH]3)nnc2SCc2cccc(C(F)(F)F)c2)c1,.,0.1,-3.9,-0.1%,-2,2
CCn1cc(C(=O)NCCCN(C)C)c(=O)c2cc(F)c(N3CCN(C)CC3)cc21,-3,0.8,-1.6,-1.8%,-7,4
CCOC(=O)c1cnc2c(-c3ccc(F)cc3)cnn2c1C(F)(F)F,9,-0.1,-1.2,?,-8,11
O=C1c2ccccc2-c2c1cccc2C(=O)N1CCN(C(=O)c2ccco2)CC1,-1,1.6,-0.9,-1.2%,-11,-6
O=C(Nc1cccc(C(F)(F)F)c1)C1CC(=O)N(Cc2ccco2)C1 (stereo unspecified),1,-1.2,-1.3,0.9%,-17,-2
CC(=O)NCCCC(=O)NN1C(=S)N(Cc2ccccc2)C(=O)C1CC(=O)Nc1cccc(C)c1 (stereo unspecified),4,-0.5,3.9,3.3%,-2,4
CCc1ccccc1N(CC)C(=O)c1cn(CC)c(=O)c2cc(OC)c(OC)cc12,2,0.6,-1.8,-1.4%,2,3
O=C(CNC1CCCCC1)NCC1(c2ccccc2)CCCC1,1,24,2.6,2.7%,-7,-4
CCN(CC(=O)Nc1ccc2c(c1)OCCO2)C(=O)c1cccc(OCC(C)C)c1,-5,-0.2,-3.0,0.2%,8,1
CCC(C)[C@@H](N)C(=O)N/N=C/c1cccc2nccnc12 (stereo partly specified),-71*,-0.1,-3.1,0.7%,-1,-87*
CC1(C(=O)NS(=O)(=O)c2ccccc2Cl)CCN1C(=O)C/C=C/c1ccccc1 (stereo unspecified),3,-0.4,-5.9,0.7%,-3,-6
CCC(=O)NC(c1ccccc1OC)c1ccc2cccnc2c1O (stereo unspecified),?,0.2,0.2,1.6%[38.3 µM],4,-88*
O=C(COc1ccccc1)Nc1ccc(F)cc1,-17,-0.3,-6.8,1.7%,-5,-19
COc1ccccc1N(C)S(=O)(=O)c1ccc(C(=O)OCC(=O)N2CCCCCC2)cc1,-2,-0.1,-10,3.8%,-15,-1
CCCCc1ncc(CN2CCC(n3nccc3NC(=O)c3ccccc3Cl)CC2)[nH]1,-3,0.2,-3.2,-1.7%,-7,4
CCCCNC(=O)C(NS(=O)(=O)c1cccc2nsnc12)c1ccccc1 (stereo unspecified),3,0.8,-0.4,-3.0%,7,1
CC1Cc2ccccc2N1c1nc(C2CC2)nc2c1nnn2Cc1ccccc1 (stereo unspecified),-6,0.9,-2.4,3.9%,2,15
Brc1ccc(Cn2c(-c3ccc(Br)o3)nc3ccccc32)o1,.,3.8,-1.6,-0.5%,-9,-10
Cn1c(CNC(=O)c2ccco2)nnc1SCC(=O)Nc1ccccc1Cl,-6,0.7,-6.6,1.8%,0,2
CCOC(=O)Cc1csc(NC(=S)NC(=O)c2cc(OC)c(OC)c(OC)c2)n1,.,-0.1,-6.6,2.0%,-16,-11
CS(=O)(=O)Nc1ccccc1C(=O)NCc1ccccc1Cl,5,0.2,1.3,-3.3%,-5,10

One compound at a time, as listed above. Screens in order: CtBP-E1A blk	TRPML1 agonist	D2 ag	PINK1 modulator	D2 potentiator	Six1-Eya2 inh
`CCN(CC(=O)Nc1ccc2c(c1)OCCO2)C(=O)c1cccc(OCC(C)C)c1` is entered as -5	-0.2	-3.0	0.2%	8	1
`O=C(COc1ccccc1)Nc1ccc(F)cc1` is entered as -17	-0.3	-6.8	1.7%	-5	-19
`CN(C)CCCNC(=S)Nc1ccc(Oc2ccccc2)cc1` is entered as 3	-1.1	-6.2	-0.3%	-10	-1

Other entries follow.
mol,CtBP-E1A blk,TRPML1 agonist,D2 ag,PINK1 modulator,D2 potentiator,Six1-Eya2 inh
O=C(c1ccco1)N1CCN(S(=O)(=O)c2ccc(Br)cc2)CC1,.,0.0,9.2,1.2%,-1,-1
CCOCCCNC(=O)CCc1nnc2ccc(N3CCCCC3)nn12,.,0.5,0.6,0.6%,-4,0
CCN(c1ccccc1)S(=O)(=O)c1ccc(C(=O)N2CCCC(C(F)(F)F)C2)cc1 (stereo unspecified),0,2.4,-1.5,1.3%,-4,8
Cc1ccc(S(=O)(=O)SC/C=C/CSS(=O)(=O)c2ccc(C)cc2)cc1,4,0.9,-2.4,9.3%,-29,3
CCc1nc(SCc2nc3ccccc3[nH]2)c2oc3ccccc3c2n1,-6,3.1,0.1,7.0%[38.3 µM],-3,-9
Cc1ccc(S(=O)(=O)N2CCN(C(=O)c3cccc(-n4cccc4)c3)CC2)cc1,20,0.2,-4.4,0.3%,-34,-15
O=C(Cc1coc(-c2ccc(F)cc2)n1)Nc1ccccc1,-8,0.3,-9.1,-0.1%,-14,7
O=C(NCC1(N2CCCCC2)CCCCC1)c1cccc(S(=O)(=O)Nc2ccccc2Cl)c1,13,-0.8,-1.9,-1.7%,-5,2
Cc1ccc(NC(=O)CCN2C(=O)c3ccncc3C2=O)cc1,-4,0.0,-0.4,0.5%,-15,3
O=C(N/N=C\c1cn[nH]c1-c1ccc(Cl)cc1)c1cccs1,0,-0.4,1.0,11%,-5,4
CCOCCOC(=O)c1cccc2c1-c1ccccc1C2=O,0,.,-0.5,0.9%,-1,4
CN1C(=O)N(CC(=O)N2CCN(c3ccccc3F)CC2)C(=O)C12CCCCC2,1,-0.3,5.4,-0.1%,-6,0
CCC1CCC/C1=N\NC(=O)CCC(=O)Nc1ccccc1Cl (stereo unspecified),4,0.0,0.4,3.7%,-8,0
Cc1cccc(NC(=O)CSc2nc3sc(C)cc3c(=O)n2C)c1,-9,0.1,-1.9,-0.9%,7,15
CCn1c(C(C)NC(=O)c2ccc(Cl)cc2)n[nH]c1=S (stereo unspecified),-11,-0.3,3.5,2.1%,-20,5
CCCCn1c(N)c(N(C(=O)CSc2nncn2-c2ccccc2C)C2CCCC2)c(=O)[nH]c1=O,9,4.2,5.4,-0.7%,-1,8
S=C(Nc1ccccc1)N1N=C(c2cccs2)CC1c1cccs1 (stereo unspecified),0,-0.4,0.7,1.4%,-11,-16
Cc1ccc(NC(=O)C2CC(=O)N(Cc3ccco3)C2)cc1 (stereo unspecified),-12,-0.4,-4.5,0.2%,-5,4
COc1ccc(CN2CC[C@H]3C=CC[C@@H](C(=O)NCCc4ccccc4)[C@H]3C2=O)cc1OC,-2,-0.6&-1.0,-7.6,-1.3%,-4,7
CC1=NN(CCc2ccccn2)C(=O)CC1,9,-0.4,-5.9,0.1%,-18,2
CN1OC[C@@H]2CN(S(=O)(=O)c3cccc4ccccc34)[C@H](c3ccc(-c4cccnc4)cc3)C[C@@H]21,-7,0.2,-7.7,1.0%,1,-6
O=C(c1cccs1)N1CCN(c2ccc([N+](=O)[O-])cc2F)CC1,-1,-0.6,0.2,-0.3%,-13,-3
CCOc1ccc(C(=O)OC(C)CN2CCCCC2)cc1 (stereo unspecified),10,0.1,-0.3,0.0%,-11,-1
CC(NC(=O)c1ccc(Cn2cc([N+](=O)[O-])cn2)o1)c1ccccc1 (stereo unspecified),-2,0.4,-0.1,1.5%,-10,3
O=C(NCCN1CCCCC1)/C(=N\O)c1ccccc1,-4,2.1,-1.3,-0.1%,-11,-1
COc1ccc(S(=O)(=O)NNC(=O)Nc2ccc(F)cc2)cc1,.,-0.7,-2.2,0.9%,-15,-2
Cc1nc(CS(=O)(=O)c2ccccc2)cc(Sc2ccc(Cl)cc2Cl)n1,2,2.4,-2.0,-0.8%,12,1
CC(C)(C)OC(=O)C[C@@H]1C/C=C\C[C@H](CC(=O)N(CCO)Cc2ccccc2)C(=O)N2CCC[C@H]2COC1=O,-12,-0.3,0.1,-1.3%,-8,2
Cc1ccc(S(=O)(=O)n2c([N+](=O)[O-])cnc2C)cc1C,-7,0.1,-0.8,-0.6%,-6,-3
CC(C)(C)NCCOc1ccc2ccccc2c1,.,0.4,-2.5,-0.9%,-11,3
Cc1cc(C)cc(NC(=O)CSc2nc(=O)n3cc(C)ccc3n2)c1,-7,0.0,-2.5,0.5%,4,-2

Compounds were not picked by outcome; overall some 1.3% were active at least once.
